# Bioassay records (PubChem BioAssay)
# VDR inhibitor = blocks the human vitamin D receptor; P11473; VDR-SRC2-3 peptide fluorescence polarization, 2 h; Potency, µM, for inactives: max response, negative = inhibition, actives largely listed as inhibitors; actives 0.93% (n = 400,000); AID 504847; active = well fitted inhibition curve with a large enough effect; inconclusive = small, poorly fitted or top-dose-only effect, or another doubt; inactive = no such curve, though single readings can be large or run the other way; note: series mostly up to about 120 µM
# Target sequence (P11473 whole entry, looked up): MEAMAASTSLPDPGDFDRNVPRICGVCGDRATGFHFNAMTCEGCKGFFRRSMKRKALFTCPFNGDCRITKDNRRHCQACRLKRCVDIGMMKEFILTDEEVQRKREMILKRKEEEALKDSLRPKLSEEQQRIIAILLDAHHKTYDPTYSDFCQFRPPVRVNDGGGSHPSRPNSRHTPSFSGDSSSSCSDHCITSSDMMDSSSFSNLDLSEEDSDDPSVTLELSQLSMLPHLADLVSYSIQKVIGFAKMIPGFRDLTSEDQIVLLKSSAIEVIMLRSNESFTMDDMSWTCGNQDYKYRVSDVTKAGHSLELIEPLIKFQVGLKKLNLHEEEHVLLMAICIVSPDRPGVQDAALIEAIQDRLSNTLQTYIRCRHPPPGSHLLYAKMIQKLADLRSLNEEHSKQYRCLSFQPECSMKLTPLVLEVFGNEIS
#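 The screen uses fluorescence polarization to detect compounds that interfere with recruitment of the SRC2-3 coactivator peptide to VDR; plates are read after 2 h at room temperature.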
# The depositor's hits bear a star; ? = inconclusive; & = joins results of further samples. % is set by controls: 0 for no effect and ±100 for the full control effect; potency is the fitted concentration of half-maximal effect. The list is partial; the hit share may differ from the screen's.
# Start of the listing, in advance (four entries):
entry	SMILES	VDR inhibitor
1	Cc1ccc(NC(=O)CSc2nc3ccccc3c(=O)n2CCCN2CCCCC2)cc1C	5.5%
2	Cc1ccccc1NS(=O)(=O)c1cc(C(=O)Nc2cccc(N(C)S(C)(=O)=O)c2)ccc1C	6.8%
3	CN(C)S(=O)(=O)c1cccc(C(=O)NCc2cccs2)c1	-12.7%
4	O=C(Nc1cc(Cl)ccc1-n1cncn1)c1cc(F)c(F)c(F)c1F	?

# The listing, from the first entry:
entry	SMILES	VDR inhibitor
1	Cc1ccc(NC(=O)CSc2nc3ccccc3c(=O)n2CCCN2CCCCC2)cc1C	5.5%
2	Cc1ccccc1NS(=O)(=O)c1cc(C(=O)Nc2cccc(N(C)S(C)(=O)=O)c2)ccc1C	6.8%
3	CN(C)S(=O)(=O)c1cccc(C(=O)NCc2cccs2)c1	-12.7%
4	O=C(Nc1cc(Cl)ccc1-n1cncn1)c1cc(F)c(F)c(F)c1F	?
5	S=c1[nH]c2ccc(Cl)cc2s1	-6.7%
6	CC1CN(C(=O)c2cn3ccccc3n2)CC(C)O1 (stereo unspecified)	-17.5%
7	CC(C)(C)SCCNC(=O)/C=C/c1ccc(F)cc1	3.3%
8	COc1ccc(Cl)cc1C(=O)NN=C1CCCC1	-0.4%
9	CCc1ccc(CN(Cc2ccco2)C(=O)c2cc(-c3ccc(C)c(F)c3)on2)cc1	9.8%
10	CCN(CC)c1ccc(/C=N/NC(=O)c2ccccn2)cc1	-4.5%
11	COc1ccc(-c2coc3cc(OC4OC(CO)C(O)C(O)C4O)ccc3c2=O)cc1 (stereo unspecified)	12.5%
12	C=CCN(c1cccc(C(F)(F)F)c1)S(=O)(=O)c1cccc(C(=O)OCC(=O)NC(N)=O)c1	-17.8%
13	COc1cc(OC)c(NC(=O)Cn2cnc3nc4c(cc3c2=O)CCCC4)cc1Cl	1.4%
14	O=C(CCc1nc2ccccc2c(=O)[nH]1)NNC(=O)c1ccc(F)cc1	15.6%
15	O=C(CCSCCC(=O)NN=Cc1ccccc1)NN=Cc1ccccc1	15.7%
16	COCCn1c(=O)c(CCc2ccccc2)nc2cnc(OC)nc21	6.8%
17	CC(NC(=O)c1ccc(OC2CCN(Cc3ccccn3)CC2)cc1)c1nccs1 (stereo unspecified)	0.4%
18	Cc1csc(NC(=O)CSc2nnc(Cn3c(=O)sc4ccccc43)n2-c2ccccc2)n1	-20.1%
19	Cc1ccc(C)c2c1cc(C)c1nnc(SCC(=O)Nc3cccc(C(=O)O)c3)n12	2.8%
20	CN(CCc1ccccc1)C(=O)c1cccc(NC(=O)Cc2cccc(NC(=O)C3CCCN(C(=O)c4ccccc4)C3)c2)c1 (stereo unspecified)	-29.8%
21	COCCn1c(=O)[nH]c2cc(C(=O)N3CCN(c4ccc(Cl)cc4)CC3)ccc2c1=O	-8.4%&9.0%
22	COc1ccc2cc(CCNC(=O)c3ccc4c(c3)OCO4)c(=O)[nH]c2c1	-9.8%
23	O=C(COC(=O)CN1C(=O)NC2(CCCC2)C1=O)NCc1ccc(Cl)cc1Cl	-1.4%
24	Cc1ccc(C(=O)OCC(=O)N2CCC(C)CC2)cc1S(=O)(=O)N1CCCCC1	-12.4%
25	Cc1ccc(CCNS(=O)(=O)c2ccc3c(c2)CCN3C(=O)CCC(=O)O)cc1	7.3%
26	CC(=O)c1c(C(C)=O)c(C)n(NC(=O)c2ccccc2Cl)c1C	15.2%
27	CCOC(=O)CC1(C)SC(NC(C)=O)=NN1C(C)=O (stereo unspecified)	-8.2%
28	CCc1ccccc1NC(=O)COc1cccc(-n2cnnn2)c1	-6.3%
29	CCc1ccc(S(=O)(=O)Nc2cc3c(cc2N2CCCCC2)n(C)c(=O)c(=O)n3C)cc1	8.2%
30	CCSC1=NCCN1C(=O)Cc1ccc(-c2ccccc2)cc1	3.3%
31	N#CC1=C(N)NC(SCC(=O)Nc2ccc(Br)cc2)=C(C#N)C12CCCCC2	-13.4%
32	Cc1cccc(CSc2ncc(Cl)c(C(=O)Nc3nnc(C)s3)n2)c1	-12.1%
33	Cc1cc(NC(c2nnc(-c3ccccc3)o2)c2ccccc2F)ccc1Br (stereo unspecified)	9.8%
34	CC(=O)N1CCN(S(=O)(=O)c2cccc(C(=O)Nc3nccs3)c2)CC1	-14.4%
35	O=C(NN=Cc1ccccc1)c1ccccc1	22.2%
36	O=S(=O)(NCC1CCCO1)c1cccc2nsnc12 (stereo unspecified)	8.2%
37	Cc1cccc(N2C(=O)C3C4C=CC(CC4)C3C2=O)c1 (stereo unspecified)	6.8%
38	Cc1c(Cl)cccc1NC(=O)CCC(=O)NNC(=O)c1ccccc1Cl	8.1%
39	Cc1cnc(C(=O)OCC(=O)NC(C)c2ccccc2)cn1 (stereo unspecified)	6.1%
40	O=C(NCc1ccco1)c1cc2c(s1)CSC2	?
41	CCOC(=O)c1cc(CC)sc1/N=C/C1C(=O)CC(C)(C)CC1=O	-18.9%
42	COc1ccc(Cl)cc1C(=O)NCC(c1ccco1)N(C)C (stereo unspecified)	23.7%
43	CCN(C(=O)CSc1nc2ccccc2c(=O)n1-c1ccccc1F)C1CCS(=O)(=O)C1 (stereo unspecified)	-6.9%
44	CCOC(=O)c1ccccc1NC(=O)N(C)CCc1c(C)nn(CC)c1C	1.4%
45	CCCC(C(=O)NCC1CCCO1)N(Cc1ccco1)C(=O)CNS(=O)(=O)c1ccccc1 (stereo unspecified)	-6.3%
46	CCSc1cc(C)nc2c(-c3ccccc3)cnn12	-3.5%
47	CC(=O)Nc1ccc(NC2=CC(=O)CC(C)(C)C2)cc1	-4.6%
48	COc1cc(CNc2nnnn2C)ccc1OCc1c(F)cccc1Cl	0.8%
49	Cc1ccnc(NC(=O)CCNC(=O)c2ccc(Cl)cc2)c1	-4.7%
50	O=C1CCCC/C1=C/NCc1ccc(F)cc1	-8.4%
51	CCc1ccccc1NC(=O)C1CCN(C2=NS(=O)(=O)C(c3ccc(C)c(C)c3)=C2C)CC1	9.1%
52	O=C(Nc1ccccc1-c1ccccc1)c1ccccc1[N+](=O)[O-]	-7.8%
53	COc1cc(/C=N/NC(=O)CCc2ccccc2)ccc1O	-8.8%
54	O=C(CCN1C(=O)c2ccccc2C1=O)Nc1ccc(S(=O)(=O)N2CCOCC2)cc1	?
55	Oc1c(Cl)cc(Cl)cc1/C=N/c1nc(-c2ccc(Cl)cc2)cs1	-9.6%
56	CCN(CC(=O)NC(C)(C)C)Cc1cc(=O)n2c(-c3ccccc3)csc2n1	2.6%
57	Cc1ccccc1/C=C/c1cccc[n+]1C	-13.7%
58	O=C(c1ccco1)N1CCN(S(=O)(=O)c2cccc3nsnc23)CC1	1.6%
59	CC[C@H](C)[C@@H]1NC(=O)[C@H](Cc2ccc(O)cc2)NC(=O)[C@@H](N)CSSC[C@@H](C(=O)N2CCC[C@H]2C(=O)N[C@@H](CC(C)C)C(=O)NCC(N)=O)NC(=O)[C@H](CC(N)=O)NC(=O)[C@H](CCC(N)=O)NC1=O	-0.9%
60	O=C(NCCc1nc2ccccc2n1CCOc1cccc2ccccc12)C1CCCCC1	3.0%

# New compounds follow:
entry	SMILES	VDR inhibitor
61	O=C(CN1CCOCC1)Nc1ccc2c(c1)CCC2	?
62	Cc1sc2nnn(CC(=O)N3CCN(C(=O)c4ccco4)CC3)c(=O)c2c1C	0.7%
63	Cc1ccccc1C(=O)Nc1nc(=S)ss1	?
64	COc1cccc(NC(=O)C2CCN(S(=O)(=O)c3ccc4c(c3)NC(=O)C(C)S4)CC2)c1 (stereo unspecified)	9.9%
65	CN(CCc1ccccn1)C(=O)CC1C(=O)NCCN1Cc1cccc(F)c1 (stereo unspecified)	-26.1%
66	CCOC(=O)CCCNC(=O)CCNC(=O)c1ccc(OCCC(C)C)cc1	-10.7%
67	O=S(=O)(NC1CCCCC1Sc1ncccn1)c1ccc(Cl)cc1 (stereo unspecified)	9.2%
68	CCNC(=O)CC1C(=O)N(c2ccc(F)cc2)C(=O)N1Cc1ccc(C)cc1 (stereo unspecified)	-4.0%
69	CCc1ccc(NC(=O)C2CCCN2c2nn3c(=O)cc(C)nc3s2)cc1 (stereo unspecified)	4.0%
70	CN(C)c1nc(N(C)C)nc(N(C#N)CN2C(=O)c3ccccc3S2(=O)=O)n1	-13.5%
71	O=C(COc1ccc2c(c1)oc(=O)c1ccccc12)NCCN1CCOCC1	7.2%
72	CC1CCN(C(=O)CNC(=O)c2cccc(OC(F)F)c2)CC1	-1.2%
73	COc1ccc(C(=O)Nc2cc(OCc3ccccc3)c(Cl)cc2Cl)cc1	17.6%
74	CCOc1ccc(NC(=O)NNC(=O)c2ccc(Cl)cc2Cl)cc1	-10.8%
75	CCc1nnc(NS(=O)(=O)c2ccc(N/C=C/C(=O)c3ccc(OC)cc3)cc2)s1	10.7%
76	CCOC(=O)c1sc(NC(=O)CSc2nnnn2-c2ccc(C)cc2)c(C(=O)OCC)c1C	0.1%
77	CCCCN(C(=O)NC(=O)Nc1ccc(C)cn1)S(C)(=O)=O	1.4%
78	O=S(=O)(c1ccccc1)c1nc(-c2ccccc2)oc1N1CCN(c2cccc(Cl)c2)CC1	-4.6%
79	Cn1c(C(=O)NCCN2CCN(c3ccccc3F)CC2)cc2c(=O)n(C)c3ccccc3c21	?
80	CC(=O)Oc1ccccc1C1=NN(C(C)=O)C(c2ccccc2)C1 (stereo unspecified)	-3.7%
81	O=c1cc2nc(-c3cccs3)nc(SCCOc3ccc(Cl)cc3)n2[nH]1	5.8%
82	Cc1ccc2nc(NC(=O)Cc3cccs3)sc2c1	2.6%
83	Cc1ccc(C)c(N(C)C(=O)c2ccc3c(=O)n4c(nc3c2)CCCCC4)c1	0.6%
84	CCc1ccccc1OCCCOc1ccc(OC)cc1	3.1%
85	COc1ccc2c(c1)c(=Cc1ccc(N(C)C)cc1)c1cc(-c3ccccc3)[n+](C)n12	?
86	CC(C)Cn1c(N)c(C(=O)COC(=O)c2ccc(Br)cc2)c(=O)n(C)c1=O	2.2%
87	O=C(NCCc1ccc(F)cc1)C(=O)NCC1CCCN1S(=O)(=O)c1ccccc1 (stereo unspecified)	9.5%
88	COc1cccc(CNC(=O)CCCc2c[nH]c3ccccc23)c1	-13.7%
89	CCC1CN(C(=O)NCc2ccc(F)cc2)c2cc(Cl)ccc2O1 (stereo unspecified)	-9.5%&-1.1%
90	COc1ccccc1C(=O)OCC(=O)Nc1cccc(S(=O)(=O)NC2=NCCCCC2)c1	1.5%
91	COc1ccc(CN(C(=O)c2cnccn2)C(C(=O)Nc2ccc(F)cc2)c2ccccc2)cc1 (stereo unspecified)	17.1%
92	COc1ccc(-c2csc(Cc3nnc(N4CCOCC4)n3-c3ccccc3)n2)cc1	2.8%
93	Cc1cc(C)c(NC(=O)CNC(=O)COC(=O)CN2C(=O)NC3(CCCC3)C2=O)c(C)c1	28.8%
94	COc1cc(-c2nc3cnccn3c2NC(C)(C)CC(C)(C)C)ccc1O	-2.0%
95	CC(C)(C)OC(=O)NC(CO)c1cn([C@@H](Cc2cc3ccccc3[nH]2)C(=O)N2CCN(C(=O)OC(C)(C)C)CC2)nn1 (stereo partly specified)	-27.3%
96	CC1=CCC(C(=O)O)C(C(=O)Nc2cccnc2)C1 (stereo unspecified)	6.1%
97	COc1ccc(C(=O)C=Cc2cccs2)c(O)c1	?
98	Cc1ccc(C)c(CSc2nnc3[nH]c(=O)cc(C)n23)c1	12.0%
99	Cc1ccc(N2CCN(S(=O)(=O)c3ccc(-n4cnnn4)cc3)CC2)c(C)c1	4.8%&18.1%
100	C=CCSc1nccc(-c2cc(Cl)sc2Cl)n1	-8.1%
101	Cc1cccc(C)c1NC(=S)NCCSc1ccc(Cl)cc1	-10.9%
102	COc1cccc(CNc2ccc(N3CCC(C)CC3)cc2)c1OC	?
103	COC(=O)Cn1nc(C)c2c(C)n(-c3ccccc3)nc2c1=O	3.7%
104	COc1ccc(N(C)C(=O)c2nc(-c3cccc(F)c3)n3c2CCCCC3)c(OC)c1	13.5%
105	COc1ccc(OC)c(C2C3=C(COC3=O)Nc3cc4c(cc32)OCO4)c1 (stereo unspecified)	6.8%
106	O=C(CCC(=O)NNC(=S)Nc1ccccc1)NCc1ccccc1	-6.5%
107	Cc1c(C(=O)NCc2ccc3c(c2)OCO3)oc2ccc(S(=O)(=O)N3CCC(C)CC3)cc12	-11.7%
108	CCOc1cc2[nH]c(=O)n(CCCCC(=O)NC3CCCCCC3)c(=O)c2cc1OCC	15.9%
109	Cc1cc(-n2c(SCC(=O)NCCC3=CCCCC3)nc3n[nH]c(C)c3c2=N)ccc1Cl	1.3%
110	c1cc2c(cc1-c1[nH]ncc1CN1CC3C[C@@H]4CC1C[C@H](C3)C4)OCO2	0.1%
111	Cc1ccccc1NC(=O)NC1(C(=O)N2CCC(C(N)=O)CC2)CCCCC1	-12.8%
112	O=C(CCS(=O)(=O)c1cccc2nsnc12)N1CC(=O)N(CCc2ccccc2)C(=O)C1	8.7%
113	O=C(Nc1cccc(F)c1)N1CCN(C/C=C/c2ccccc2)CC1	2.2%
114	CCc1ccc(NS(=O)(=O)c2ccc3[nH]cc(C(=O)NCCc4ccccc4)c(=O)c3c2)cc1	5.1%
115	COc1ccc(Oc2cc(C)nc(Cl)n2)nn1	-10.4%
116	COc1cc2c(cc1O)CCN(C(=O)CSc1nncn1C)[C@@H]2C	0.4%
117	CCN(C(=O)CSc1nc(-c2ccccc2)no1)c1ccccc1	4.8%
118	COc1ccc(OCCn2c(N)nc3ccccc32)cc1	1.8%
119	COc1cc(CNC(=O)c2cc3n(n2)CCCN(Cc2ccc(C)cc2)C3=O)cc(OC)c1OC	2.9%
120	CN(C)c1cc2c(Nc3ccc4c(cnn4Cc4ccccc4)c3)ncnc2cn1	-0.8%
121	O=C(N[C@@H](Cc1ccccc1)C(=O)OCc1ccccc1)c1nc[nH]c1C(=O)N[C@@H](Cc1ccccc1)C(=O)OCc1ccccc1	?
122	c1ccc(OCc2nc3ccccc3s2)cc1	2.7%
123	COc1ccc(C(NC(=O)CNC(C)=O)C(=O)Nc2ccc3c(c2)OCCO3)cc1 (stereo unspecified)	1.9%
